Mtb MbtI inh: MbtI salicylate synthase inhibitors, primary screen, biochemical, fluorescence intensity. 100,000 compounds, 0.89% hits. AID 493033, 2011. inhibition, %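 (about 17 µg/mL by stock and volumes)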. purified MbtI enzyme, fluorescence intensity read-out;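 active = above 50% in both replicates, above 80% if mildly self-fluorescent; inactive = the rest, strongly fluorescent compounds included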;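 note: 0% = mean of negative and 100% = mean of positive controls; one replicate is shown; some compounds called inactive have numbers as strong as hits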
Target sequence (P9WFX0 whole entry, looked up): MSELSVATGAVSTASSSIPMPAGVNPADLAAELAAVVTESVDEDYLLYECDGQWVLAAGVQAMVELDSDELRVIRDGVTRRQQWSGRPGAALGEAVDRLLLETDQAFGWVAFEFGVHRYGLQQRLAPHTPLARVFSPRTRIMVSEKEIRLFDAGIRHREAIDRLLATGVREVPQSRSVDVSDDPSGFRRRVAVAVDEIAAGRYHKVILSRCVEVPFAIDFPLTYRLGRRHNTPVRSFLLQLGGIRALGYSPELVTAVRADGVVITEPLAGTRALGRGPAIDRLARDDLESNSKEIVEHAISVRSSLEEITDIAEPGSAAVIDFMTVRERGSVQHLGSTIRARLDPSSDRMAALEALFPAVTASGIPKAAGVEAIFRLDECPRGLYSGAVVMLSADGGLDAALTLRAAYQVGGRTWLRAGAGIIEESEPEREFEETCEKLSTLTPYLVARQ
Polio RdRp inh: poliovirus RdRp elongation inhibitors, primary screen, biochemical, fluorescence polarization, total intensity; Genome polyprotein (Poliovirus type 1 (strain Mahoney)), P03300; poliovirus polymerase elongation; stronger effect = lower value; % elongation, % (compound at 16.7 µg/mL); 150,000 compounds, 0.66% hits; AID 588519, 2011; in the data active = % elongation below about 90%; note: some results filed as inactive read as strong as hits
Mtb MenB inh: M. tuberculosis MenB inhibitors, primary screen, biochemical, absorbance | 1,4-dihydroxy-2-naphthoyl-CoA synthase (Mycobacterium tuberculosis (strain ATCC 25618 / … | MenB enzyme assay, absorbance read-out; some hits fall short of the stated cut | inhibition, %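 (about 12 µg/mL by stock and volumes)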 | 100,000 compounds, 0.43% hits | AID 540299, 2011;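 active = mean of two replicates above 30%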;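 note: 0% = no compound and 100% = wells with inactive enzyme; the first replicate is given; strong numbers were not always called active; inactives centre near -10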
Target sequence (P9WNP5 whole entry, looked up): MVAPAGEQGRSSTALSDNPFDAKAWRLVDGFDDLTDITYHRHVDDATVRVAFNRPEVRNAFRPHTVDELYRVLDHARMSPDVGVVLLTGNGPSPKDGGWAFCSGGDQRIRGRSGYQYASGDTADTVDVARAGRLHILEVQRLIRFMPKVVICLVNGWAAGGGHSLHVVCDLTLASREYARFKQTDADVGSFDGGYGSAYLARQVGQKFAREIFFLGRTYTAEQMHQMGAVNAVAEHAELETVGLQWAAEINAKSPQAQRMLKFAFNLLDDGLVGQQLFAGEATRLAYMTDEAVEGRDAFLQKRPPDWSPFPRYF
Polio RdRp inh intensity: further read-out of Polio RdRp inh, marked with its call; % elongation; measured here: total intensity read-out; formula for this scale not given here;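 total fluorescence in place of polarization; lower means less elongation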
Numbers without * were called inactive; nt = no result given; & = joins results of further samples.

Below each SMILES: Mtb MbtI inh | Polio RdRp inh | Polio RdRp inh intensity | Mtb MenB inh
1: O=C1NC(=O)C2(C(=O)N1)C(c1ccccc1Cl)CC(O)CC2c1ccccc1Cl (stereo unspecified)
    nt | 98 | 97 | -13
2: O=C(NCCCN1CCCC1=O)c1ccc2c(c1)ncn2C1CCCCC1
    -8 | 105 | 106 | -3
3: CN(C)c1cccc(C(=O)N2CC3(C)CC2CC(C)(C)C3)c1 (stereo unspecified)
    -20 | 106 | 113 | -7
4: Cc1c(OCC(=O)NCc2ccccc2Cl)ccc2c3c(c(=O)oc12)CCC3
    0 | 101 | 102 | nt
5: CN(c1ncnc2c1cnn2-c1ccc(Cl)cc1)C1CCCCC1
    5 | 102 | 98 | 4
6: Cc1ccc2nc(-c3ccc(NC(=O)C4CCC4)cc3)sc2c1
    -71 | 104 | 114 | -12
7: OCCN/N=C/c1cc(Cl)cc(Cl)c1O
    -10 | 97 | 99 | -29
8: Nc1nnc(CCS(=O)(=O)c2ccc3ccccc3c2)s1
    -4 | 102 | 100 | -60
9: O=C(CSc1nc(-c2ccco2)cc(C(F)(F)F)n1)N1CCCC1
    -16 | 105 | 102 | -36
10: CC(=O)N1N=C(c2ccc(C)cc2)CC1c1cc2cc3c(cc2nc1Cl)OCO3 (stereo unspecified)
    -41 | 103 | 105 | -1
11: CN(Cc1ccccc1)S(=O)(=O)c1ccc(C(=O)Nc2nc3ccc4ccccc4c3s2)cc1
    -3 | 102 | 104 | -22
12: Cc1ccccc1SCC(=O)NC1CCOC1=O (stereo unspecified)
    -2 | 109 | 117 | -19
13: C=CCn1cc(C(=O)OC)c(=O)c2cc(S(=O)(=O)N3CCCCCC3)ccc21
    3 | 104 | 103 | -17
14: COc1ccc2c(c1)NC1(O)c3ccccc3C(=O)C21O (stereo unspecified)
    0 | 104 | 106 | -69
15: CCOC(=O)c1oc2ccc3c(C)cc(=O)oc3c2c1-c1ccccc1
    -2 | 101 | 101 | 8
16: CC(C)(C)c1coc2cc3oc(=O)ccc3cc12
    2 | 102 | 98 | 26
17: O=S1(=O)N=C(N2CCCC(C(F)(F)F)C2)c2ccccc21 (stereo unspecified)
    0 | 103 | 103 | -1
18: CC(NC(=O)/C=C/c1ccccc1)C1COc2ccccc2O1 (stereo unspecified)
    1 | 101 | 100 | -31
19: CC(C)COC(=O)N1CCN(S(=O)(=O)c2ccccc2C#N)CC1
    0 | 101 | 97 | -18
20: COC(=O)c1ccc(C(=O)OCCCc2nc3ccc(N)cc3[nH]2)cc1
    6 | 98 | 102 | 7
21: O=C(CCS(=O)(=O)c1cccc2nsnc12)NCc1cccs1
    21 | 99 | 101 | -6
22: CCOC(=O)c1ccccc1NC(=O)Cn1c(=O)n(Cc2nc(C)no2)c(=O)c2cc3c(cc21)OCO3
    14 | 103 | 102 | -5
23: O=C(CSc1nc(NCc2ccccc2)c2ccccc2n1)c1ccc(F)cc1
    9 | 105 | 98 | 6
24: CCCCOC(=O)c1cc(=O)[nH]c(=O)[nH]1
    7 | 102 | 101 | -17
25: O=S(=O)(c1ccccc1)c1cscc1NC(=S)Nc1ccccc1Cl
    -11 | 112 | 113 | -26
26: CCOC(=O)C1=C(C)Nc2c(C#N)c(N3CCOCC3)nn2C1c1ccc(OC)cc1 (stereo unspecified)
    35 | 105 | 99 | -50
27: O=C(CCC(=O)c1ccc(F)cc1)OCc1ccc(Br)cc1
    2 | 104 | 109 | nt
28: CCOC(=O)c1c(C)[nH]c(NC(=O)Nc2ccc(N(C)C)cc2)c1C
    0 | 104 | 101 | -41
29: Cc1cc(C)c(C)c(Cn2c(CO)nc3ccccc32)c1C
    10 | 101 | 101 | -8
30: N#Cc1ccc(COC(=O)CN2C(=O)CCOc3ccccc32)cc1
    -3 | 103 | 106 | -12
31: CNc1nc2c(C)cccn2c(=O)c1C=Nc1ccc(OC)cc1
    -3 | 100 | 103 | -5
32: Cc1cc2c3c(C)n(C4CCCCC4)c(C)c3c(C)nn2c1
    -11 | 102 | 108 | -40
33: CSc1nc(-c2ccccc2)nc2c1Cc1ccccc1O2
    0 | 100 | 104 | -4
34: CCCCS(=O)(=O)NC1=NCN(CCOC(=O)c2ccccc2)CN1
    -5 | 107 | 102 | -3
35: Cc1ccc(S(=O)(=O)NCCC(c2ccc(F)cc2)c2ccco2)cc1 (stereo unspecified)
    -3 | 102 | 96 | -35
36: O=C1C=C(NNc2ccccc2)CCC1
    88 | 97 | 95 | -22
37: CSc1n[nH]c(=O)n1-c1cccc(C(F)(F)F)c1
    12 | 100 | 101 | -4
38: CCN(CC(=O)Nc1ccc2c(c1)OCCO2)C(=O)CC1CCCC1
    -1 | 106 | 99 | 11
39: CCN(Cc1ccccc1)C(=O)c1ccc(C#N)cc1
    -1 | 104 | 103 | -6
40: CCN(CC)C(=O)CSc1nnc(-c2ccco2)n1CCCOC
    -10 | 105 | 104 | -18
41: O=C(NC(=S)N1CCOCC1)C12CC3CC(CC(C3)C1)C2
    4 | 104 | 110 | -8
42: CCN(CC)c1ccc(-c2nnc(SCC(=O)N3CCNC3=O)n2C)cc1
    16 | 103 | 95 | 4
43: CN(C)S(=O)(=O)c1cccc(C(=O)OCC(=O)N2CCCCC2)c1
    -5 | 102 | 92 | -38
44: CCOc1cc2[nH]c(=S)n(CCCCC(=O)NC3CCCCC3)c(=O)c2cc1OCC
    0 | 101 | 98 | -1
45: Cc1noc(C)c1CSCC(=O)NC1CCCc2ccccc21 (stereo unspecified)
    21 | 102 | 97 | 7
46: O=C(NCC(=O)N1CCN(S(=O)(=O)c2ccccc2)CC1)c1ccc(Cl)cc1
    10 | 104 | 98 | 9
47: O=C(Nc1ccc(OCc2ccccc2)cc1)N1CCN(c2ccccn2)CC1
    1 | 106 | 98 | 11
48: N#Cc1ccc(-c2cccnc2)nc1SCC(=O)O
    -2 | 99 | 100 | -15
49: O=C(CC1Sc2ccccc2NC1=O)OCn1nnc2ccccc2c1=O (stereo unspecified)
    9 | 103 | 112 | 2
50: Cc1cccc(NC(=O)CNC(=O)c2ccc(S(=O)(=O)NCc3ccco3)cc2)c1C
    9 | 101 | 93 | -4
51: COC(=O)c1sc(S(=O)(=O)NC23CC4CC(CC(C4)C2)C3)c(C(=O)OC)c1C
    -30 | 104 | 98 | -6
52: CCC(=O)Nc1ccc2nc(-c3ccccc3)[nH]c2c1
    nt | 108 | 109 | -1
53: CCc1ccc(-c2nc(CN3CCC(C(=O)NC4CC4)CC3)c(C)o2)cc1
    5 | 102 | 98 | -19
54: COC(=O)C1=C(O)C2(C(=O)O)CC(C(=O)OC)=C(O)C(C(=O)O)(C1)C2
    -11 | 108 | 110 | 8
55: Cc1sc2c(c1C)CSC(C(=O)O)=C2
    98* | 100 | 105 | -20
56: O=C(NCc1ccccn1)c1ccccc1
    -2 | 102 | 106 | -28
57: CCOC(=O)C1C2c3ccccc3C(c3ccccc32)C1C(=O)OCC (stereo unspecified)
    -7 | 107 | 114 | -5
58: CC(C)n1ncc2c(C(=O)N3CCc4ccccc43)cc(C3CC3)nc21
    -3 | 96 | 97 | -5
59: CC(C)(C(=O)Oc1ccccc1)S(=O)(=O)c1ccc(C(F)(F)F)cn1
    -9 | 105 | 110 | -5
60: CCN1/C(=C/C=C2\SC(=S)N(C)C2=O)Oc2ccccc21
    -25 | 120 | 127 | -12

Just Polio RdRp inh intensity and Polio RdRp inh, for some of the entries so far:
item | smiles | Polio RdRp inh intensity | Polio RdRp inh
26 | CCOC(=O)C1=C(C)Nc2c(C#N)c(N3CCOCC3)nn2C1c1ccc(OC)cc1 (stereo unspecified) | 99 | 105
16 | CC(C)(C)c1coc2cc3oc(=O)ccc3cc12 | 98 | 102
42 | CCN(CC)c1ccc(-c2nnc(SCC(=O)N3CCNC3=O)n2C)cc1 | 95 | 103

Remaining list, next part
Below each SMILES: Mtb MbtI inh | Polio RdRp inh | Polio RdRp inh intensity | Mtb MenB inh
61: O=C(O)CN(CC(=O)O)c1ccc2cccc(O)c2n1
    -129 | 99 | 104 | 3
62: Clc1ccc(C2CC3CCC2N3)cn1 (stereo unspecified)
    -1 | 101&100 | 100&100 | -5
63: Cc1cccc(CN2C(=O)CSc3nc(C)cc(C)c32)c1
    -5 | 100 | 106 | 5
64: O=P(O)(CCc1ccccc1)CN1CCCCC1
    -15 | 104 | 103 | -16
65: Cc1ccc(NS(=O)(=O)c2cccc(C(=O)NC3CC3)c2)c(C)c1
    -13 | 100 | 105 | nt
66: CCC(CC)C(=O)n1c(=O)oc2ccc(C)cc21
    4 | 101 | 102 | -24
67: O=C(COC(=O)c1ccc(-c2nc3ccccc3s2)s1)NC1CC1
    76 | 101 | 108 | 14
68: CC(=O)Nc1ccc(S(=O)(=O)Nc2ccc3c(c2)OC(C)(C)O3)cc1
    4 | 101 | 109 | 40
69: COc1ccccc1NS(=O)(=O)c1ccc(N)cc1
    -6 | 109 | 103 | -31
70: CS(=O)(=O)Nc1ccccn1
    74 | 103 | 96 | 2
71: CCc1nc(-c2ccc(OC)cc2)cc2cc(OC)c(OC)cc12
    7 | 102 | 97 | -1
72: COc1ccc(N(C)S(=O)(=O)c2c(C)[nH]c(=O)[nH]c2=O)cc1
    -9 | 105 | 108 | 0
73: CCN(CC)C(=O)CSc1nnc(Cc2ccccc2)n1CC
    7 | 103 | 103 | -18
74: O=C(c1cc2c(s1)-c1ccccc1OC2)N1CCCC1
    85 | 101 | 102 | -19
75: CCOC(=O)c1c(C)n(Cc2ccccc2)c2ccc(OCC(O)CN3CCN(CCO)CC3)cc12 (stereo unspecified)
    -14 | 101 | 103 | -7
76: C=CCNC(=O)CSc1nnc(C(CC)N(C)C)n1C1CCCCC1 (stereo unspecified)
    -9 | 103 | 104 | -3
77: O=C(NC(=O)c1cccs1)OC[C@@H]1CCCN2CCCCC12 (stereo partly specified)
    nt | 106 | 111 | -12
78: Cc1cccc(OCc2nnc(SCC(=O)N3CC(=O)Nc4ccccc43)o2)c1
    -12 | 100 | 99 | -16
79: COc1ccc(-c2onc(C)c2C)cc1S(=O)(=O)N(C)CC1COc2ccccc2O1 (stereo unspecified)
    -8 | 104 | 98 | -19
80: COc1cc(S(=O)(=O)NCCc2c[nH]c3ccccc23)ccc1-n1cnnn1
    14 | 105 | 104 | -8
81: C[C@]12CCC3c4ccc(O)cc4CCC3C1CC[C@@H]2OC(=O)CCC1CCCC1 (stereo partly specified)
    -11 | 100 | 103 | -6
82: Oc1ccc(/C=C/c2ccncc2)cc1
    -23 | 104 | 104 | -15
83: CCCCn1c(N)c(N2CCC(C(N)=O)CC2)c(=O)[nH]c1=O
    -12 | 104 | 103 | -9
84: CCN1C(=O)/C(=c2\sc3nc(-c4ccccc4C)nn3c2=O)c2ccccc21
    7 | 101 | 106 | 8
85: CC(=O)N/N=C/c1c[nH]c2ccc(Br)cc12
    18 | 99 | 105 | -12
86: [O-]c1n[n+](-c2ccccc2)no1
    nt | 96 | 92 | -1
87: COc1ccc(CCCc2nnc(SCC(=O)Nc3cc(F)ccc3C)o2)cc1C
    8 | 100 | 102 | -21
88: CC1CCCCN1C(=O)Cc1ccc(Br)cc1 (stereo unspecified)
    -6 | 102 | 103 | -20
89: O=C(OCc1cc(=O)oc2cc3c(cc12)CCC3)c1ccccn1
    -3 | 96 | 97 | -17
90: Cc1nn(CCC(N)=O)c2nc(-c3cccnc3)cc(C(F)(F)F)c12
    79 | 104 | 104 | nt

Four compounds drawn at random from the list so far:
Below each SMILES: Mtb MbtI inh | Polio RdRp inh | Polio RdRp inh intensity | Mtb MenB inh
78: Cc1cccc(OCc2nnc(SCC(=O)N3CC(=O)Nc4ccccc43)o2)c1
    -12 | 100 | 99 | -16
87: COc1ccc(CCCc2nnc(SCC(=O)Nc3cc(F)ccc3C)o2)cc1C
    8 | 100 | 102 | -21
62: Clc1ccc(C2CC3CCC2N3)cn1 (stereo unspecified)
    -1 | 101&100 | 100&100 | -5
85: CC(=O)N/N=C/c1c[nH]c2ccc(Br)cc12
    18 | 99 | 105 | -12

Carrying on.
Below each SMILES: Mtb MbtI inh | Polio RdRp inh | Polio RdRp inh intensity | Mtb MenB inh
91: Cc1onc(-c2c(Cl)cccc2Cl)c1C(=O)NC(C)(C)CO
    -4 | 100 | 104 | 5
92: CC(SCC(=O)Nc1ccc(F)cc1)C(=O)O (stereo unspecified)
    -15 | 108 | 108 | -1
93: C=CCOC(=O)c1cc(-c2ccc(/C=C3/NC(=S)NC3=O)o2)ccc1Cl
    19 | 103 | 105 | 7
94: CCN1C(=O)C(=Nc2ccc(S(=O)(=O)N3CCOCC3)cc2)c2ccccc21
    -6 | 102 | 106 | 0
95: COc1ccc(NNC(=O)C(O)(c2cccc(OC)c2)c2cccc(OC)c2)cc1
    -1 | 100 | 103 | 2
96: O=C(OCc1cccc(C(F)(F)F)c1)C1COc2ccccc2O1 (stereo unspecified)
    10 | 100 | 91 | -12
97: CSc1nnc2c3ccccc3n(Cc3ccccc3)c2n1
    -4 | 100 | 101 | -5
98: CC(=O)Nc1ccc(S(=O)(=O)n2cc(C)nc2-c2ccccc2)cc1
    nt | 102 | 102 | -4
99: COc1ccc2oc3cc(C)nc(-c4ccccc4)c3c2c1
    59 | 102 | 106 | -6
100: O=S(=O)(c1ccc(-c2cc(C(F)(F)F)on2)s1)N1CCC(O)(c2ccc(Cl)cc2)CC1
    1 | 104 | 94 | 5

High-throughput results (PubChem BioAssay)
